Mtb betalactam: beta-lactam sensitization of Mtb H37Rv, H37Rv; M. tuberculosis H37Rv growth with meropenem, percent inhibition; hits of this screen are not shown here; inhibition, % at 25 µM; hit rate 0.27% among 330,000; AID 434955, 2010;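 active = about 74% or more and at least 40 points above the plate without the antibiotic, then above 30% in a dose series; inconclusive = first-round hits that could not be retested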;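 note: growth measured after seven days incubation then overnight dye step; 0% = bacteria only wells and 100% = bacteria with antibiotic; twin plates without the antibiotic show which effects depend on it; some results filed as inactive read as strong as hits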
Arbovirus anti: antivirals against arbovirus infection, primary screen, cell-based, full library, 10K replicate subset; arbovirus infection cell-based antiviral screen; inhibition, % at 10 µM; hit rate 0.37% among 200,000; AID 1251, 2008;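 active = inhibition from about 30%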;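 note: bluetongue infection of BSR cells; cell survival read as ATP light after 72 h; 0% = infected wells without compound and 100% = uninfected wells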
Mtb growth: M. tuberculosis H37Rv growth inhibitors, H37Rv strain (AID 1626) | M. tuberculosis H37Rv growth inhibition; higher % means a stronger effect | inhibition, % at 10 µM; hits with a dose series show IC50 in µM | hit rate 0.95% among 220,000;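 active = confirmed in a dose series; inconclusive = inhibition above 80% but not taken into the dose series; inactive = below 80% or under 30% at every dose of the series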;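 note: bacteria incubated seven days before Alamar blue readout; 0% = bacteria only wells and 100% = bacteria with antibiotic wells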
YopH inh: YopH tyrosine phosphatase inhibitors, primary screen, biochemical, fluorescence Ex485/Em525; YopH tyrosine phosphatase [Yersinia enterocolitica]; inhibition, %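 (about 10 µM by stock and volumes)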; hit rate 0.16% among 140,000; AID 898, 2007;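 active = inhibition of 50% or more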;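 note: controls were vehicle for no effect and minimum signal wells for full effect; inactives centre near -20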
RecA splice inh: Mtb RecA intein splicing inhibitors, primary screen, biochemical, fluorescence, HTS; inhibition, %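 (about 9 µM by stock and volumes)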; Protein RecA (Mycobacterium tuberculosis (strain ATCC 25618 / H37Rv)), P9WHJ3; AID 2221, 2009; hit rate 0.75% among 290,000; cell-free RecA intein splicing; in the data active = inhibition above about 30%; inconclusive = no clear call, values can overlap the other calls;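 note: 0% = vehicle wells and 100% = reference inhibitor control wells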
Target sequence (P9WHJ3 whole entry, looked up, canonical isoform): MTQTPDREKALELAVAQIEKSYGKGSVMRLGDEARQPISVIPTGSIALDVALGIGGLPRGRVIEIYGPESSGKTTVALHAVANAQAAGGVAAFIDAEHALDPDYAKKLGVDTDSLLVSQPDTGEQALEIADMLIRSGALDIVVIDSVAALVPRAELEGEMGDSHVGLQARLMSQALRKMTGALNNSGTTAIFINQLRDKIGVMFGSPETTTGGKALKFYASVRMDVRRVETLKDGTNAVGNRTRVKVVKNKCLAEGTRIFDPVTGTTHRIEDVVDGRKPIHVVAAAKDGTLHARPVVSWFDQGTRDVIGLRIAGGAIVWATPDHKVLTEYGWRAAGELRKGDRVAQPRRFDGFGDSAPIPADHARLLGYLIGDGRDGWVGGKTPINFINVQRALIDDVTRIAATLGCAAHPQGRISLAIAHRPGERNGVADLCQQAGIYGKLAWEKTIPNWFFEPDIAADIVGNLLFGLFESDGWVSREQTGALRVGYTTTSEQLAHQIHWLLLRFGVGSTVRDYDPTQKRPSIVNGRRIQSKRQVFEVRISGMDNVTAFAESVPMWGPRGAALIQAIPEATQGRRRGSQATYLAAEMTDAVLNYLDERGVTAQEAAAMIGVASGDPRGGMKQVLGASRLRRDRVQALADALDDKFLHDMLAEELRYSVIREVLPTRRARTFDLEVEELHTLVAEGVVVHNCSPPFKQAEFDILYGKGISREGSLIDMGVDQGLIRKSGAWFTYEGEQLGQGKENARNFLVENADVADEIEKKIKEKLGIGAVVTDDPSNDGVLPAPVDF
Arbovirus anti repeat: also measured in Arbovirus anti; calls as there; inhibition, %; measured here: 10K subset replicate screen; many hits read low in the repeat;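 first of two repeat runs on a subset; 0% = infected and 100% = uninfected wells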
Active calls of the source: *; ? = inconclusive; . = not tested or not shown. Not all compounds are listed (hit frequency here may not be typical).

A first look, two compounds:
SMILES	Mtb betalactam	Arbovirus anti	Mtb growth	YopH inh	RecA splice inh	others
CCN(CC)c1ccc2nc3c4ccccc4c(=O)cc-3oc2c1	5	.	.	.	-0.1
c1ccc(N2CCN(c3c4c(nc5ncnn35)CCC4)CC2)cc1	0	1	-1%	5	-0.1

Main list, from the first entry:
SMILES	Mtb betalactam	Arbovirus anti	Mtb growth	YopH inh	RecA splice inh	others
CCN(CC)c1ccc2nc3c4ccccc4c(=O)cc-3oc2c1	5	.	.	.	-0.1
c1ccc(N2CCN(c3c4c(nc5ncnn35)CCC4)CC2)cc1	0	1	-1%	5	-0.1
Cc1ccc2cc(CN(c3ccccc3C)S(=O)(=O)c3ccccc3)c(=O)[nH]c2c1	13	.	.	.	0.4
O=C(CN1C(=O)/C(=C/c2ccco2)SC1=S)Nc1ccc(O)c(C(=O)O)c1	2	.	.	.	8.4
COc1ccccc1/C=N/NC(=O)c1ccc(N(C)S(=O)(=O)c2ccccc2)cc1	-6	1	-8%	.	1.1
CC(C)[C@H](NC(=O)OC(C)(C)C)c1nnc(SCc2cccc(F)c2)o1	-8	3	-19%	-18	2.6
c1ccc(Cn2c(SCCN3CCOCC3)nnc2-c2cccnc2)cc1	-7	2	-3%	-18	1.6
CCOC(=O)CCSc1nc(N2CCOCC2)c2c(c1C#N)CC(C)(C)OC2	-3	.	.	.	-0.5
Cc1ccc(NC(=O)Cn2cnc3cc([N+](=O)[O-])ccc3c2=O)cc1	1	.	-6%	.	-1.9
CN(CCc1ccccn1)C(=O)CN(C)S(=O)(=O)c1ccc2c(c1)c(=O)n(C)c(=O)n2C	?	2	-8%	9	-3.9
CCN1CCN(c2ccc(NC(=O)c3cccc(OCc4ccccc4)c3)cc2)CC1	92	-27	6%	-25	1.8
O=C(CCCCl)Oc1ccc2cc(-c3ccc4ccccc4n3)c(=O)oc2c1	13	5	7%	-29	.
CC1SCC(=NOCc2ccccc2)CS1 (stereo unspecified)	-7	.	-7%	.	2.2
O=C(C1CC(=O)N(C2CCCC2)C1)N1CCN(c2cccc(Cl)c2)CC1 (stereo unspecified)	-7	.	.	.	-0.5
N#Cc1cccc(OC(=O)c2ccc3c(=O)n4c(nc3c2)CCC4)c1	10	.	.	.	12
Cc1cc(C)cc(NC(=O)C(OC(=O)C2=COCCO2)c2ccccc2)c1 (stereo unspecified)	67	-1	47%	-16	4.9
O=C(c1cc(COc2ccc(F)cc2Cl)on1)N1CCC(OCc2cccnc2)CC1	89	-7	>100µM*	.	1.7
Cc1onc(-c2ccccc2Cl)c1C(=O)NC(=S)NCc1cccnc1	3	0	2%	.	12
CCC(=O)N1CCN(c2ccc(Cl)cc2NC(=O)c2ccc(Br)o2)CC1	2	.	-3%	-10	-4.0
CCOc1cc(C(=O)NC(CC(=O)O)c2ccc(OC3CCCC3)cc2)cc(OCC)c1OCC (stereo unspecified)	-6	.	.	.	2.4
COc1cc(NC(=S)NC2CC(C)(C)NC(C)(C)C2)cc(OC)c1	-7	-2	-2%	.	-5.8
COc1cc(S(=O)(=O)NC2CCCC2)c(OC)cc1Cl	-1	-6	-1%	0	-1.1
O=c1/c(=C/c2ccc(O)cc2)sc2n1CCCN=2	-1	47*	-1%	-35	.
CCOC(=O)c1cccc(NC(=O)CCn2nnc3ccccc32)c1	-23	0	3%	-21	0.2
COc1cc(O)c2c(c1)OC(c1ccc(O)cc1)CC2=O (stereo unspecified)	-8	10	12%	.	7.8
O=C(O)CS(=O)(=O)CC(=O)NCc1cccc(C(F)(F)F)c1	2	0	-2%	.	-0.8
C=CCN1C(C(=O)c2ccccc2)=C(OC(=O)COc2ccccc2)c2ccccc2S1(=O)=O	-4	8	-1%	-21	.
COC(=O)c1c(N)sc(Cc2ccccc2)c1C	10	-30	-1%	.	15
Cc1ccc(CN(Cc2ccc(C)o2)C(=S)NCC(=O)O)cc1	-2	0	-5%	-19	-0.8
O=C(C1CC(=O)N(c2ccc(F)cc2)C1)N1CCN(c2ccc(F)cc2)CC1 (stereo unspecified)	12	.	.	.	0.2
N/C(=N\OC(=O)c1ccc(Cl)cc1Cl)c1ccc(Cl)cc1	84	-11	11%	-12	2.2
COc1ccc(CNC(=O)C(c2cccs2)N(C(=O)c2csnn2)C2CC2)cc1 (stereo unspecified)	2	2	-9%	-24	1.6
O=C(N/N=C/c1ccc(O)cc1O)c1ccncc1	2	.	.	.	-1.3
Cc1c(NC(=O)CSc2nnc(-c3ccncc3)o2)c(=O)n(-c2ccccc2)n1C	-3	4	-1%	.	-1.3
CC(=O)N1CCN(CC(=O)Nc2ccc(C)c(F)c2)CC1	0	.	.	.	0.2
Nn1c(SCC(=O)NCc2ccccc2)nnc1C1CC1	-4	-3	3%	-39	-0.3
Cc1cc(C)n(-c2cc(N3CCN(S(=O)(=O)c4ccc5ccccc5c4)CC3)ccc2[N+](=O)[O-])n1	-5	2	-1%	-32	2.3
CCOc1cc(C(=S)N2CCOCC2)cc(Br)c1OS(=O)(=O)c1ccccc1	-7	.	.	.	2.4
CC(C)/C(=N\NC(=O)Nc1ccccc1)c1ccccc1	-5	24	-4%	-14	-0.3
CCCCOP(=O)(CN1CCOCC1)OCCCC	-12	2	-5%	-10	-1.1
OC(c1cc(C(F)(F)F)nc2c(Cl)cc(Cl)cc12)C1CCCCN1 (stereo unspecified)	86	.	49%	.	3.4
CS(=O)(=O)Nc1ccccc1C(=O)c1ccccc1	10	-5	-2%	24	1.7
CCCCNC(=O)CN(c1ccc(Cl)c(Cl)c1)S(C)(=O)=O	?	4	-1%	-24	-0.9
Cc1nn2c(NCC(C)C)c3c(nc2c1-c1ccccc1)CCC3	4	2	0%	10	2.8
CC(C)C(=O)Nc1nnc(Cc2c[nH]c3ccccc23)s1	-3	.	-2%	.	1.0
COCc1nnc(NC(=O)CCCCCN2C(=O)c3ccccc3C2=O)s1	-9	3	-1%	-126	1.8
COc1cc(Cl)cc(C#N)c1OCC(=O)O	2	5	-16%	17	-1.4
CCOC(=O)Cc1csc(NC(=O)c2ccc(Br)s2)n1	68	1	4%	-14	5.1
O=C(O)C1C2CCC(O2)C1C(=O)Nc1cccc(F)c1 (stereo unspecified)	-9	-6	-9%	-17	-0.4
Cc1cc(C(=O)NCC(=O)OC(C(=O)Nc2cc(C(F)(F)F)ccc2Cl)c2ccccc2)ccc1[N+](=O)[O-] (stereo unspecified)	2	21	3%	-26	.

Brought forward from above: three compounds, followed by the next part.
SMILES	Mtb betalactam	Arbovirus anti	Mtb growth	YopH inh	RecA splice inh	others
CCOC(=O)Cc1csc(NC(=O)c2ccc(Br)s2)n1	68	1	4%	-14	5.1
O=C(O)C1C2CCC(O2)C1C(=O)Nc1cccc(F)c1 (stereo unspecified)	-9	-6	-9%	-17	-0.4
Cc1cc(C(=O)NCC(=O)OC(C(=O)Nc2cc(C(F)(F)F)ccc2Cl)c2ccccc2)ccc1[N+](=O)[O-] (stereo unspecified)	2	21	3%	-26	.
CCN(CC)c1ccc(/C=N/Nc2nc3ccccc3[nH]2)cc1	.	-12	?	-6	13
CCCC(=O)OCC(=O)Nc1ccc2c(c1)OCO2	1	1	-7%	.	-3.4
CCc1ccccc1S(=O)(=O)Cc1ccc(C(=O)NCCc2ccccc2)o1	-4	.	.	.	2.0
O=C(NC1CCCC1)C1C2C=CC(C2)C1C(=O)N1CCOCC1 (stereo unspecified)	-2	6	1%	-28	-2.1
CN1CCc2c(sc(/N=C/c3cc(Cl)ccc3O)c2C#N)C1	-3	.	-9%	.	-7.1
COCCNC(=O)CCCn1c(=O)c2cc(OC)c(OC)cc2n(CC(=O)c2ccc(Cl)cc2)c1=O	-3	1	-1%	.	-4.5
COc1ccc(C(=S)N2CCOCC2)cc1OC(=O)c1ccc(C)cc1	4	.	.	.	-2.2
CC1CCN(C(=O)COC(=O)c2ccc(=O)n(Cc3ccccc3)n2)CC1	-10	.	.	.	-1.2
CCc1cc(=O)oc2c3c(cc(OCC(=O)NCCCCCC(=O)O)c12)OC(C)(C)CC3	-6	.	.	.	-1.6
O=C(CCn1c(=O)oc2cc(Cl)ccc21)Nc1ccc(O)cc1	9	.	.	.	3.3
Nc1ccc(Sc2nnnn2-c2ccccc2)c(Cl)c1	13	-8	13%	-8	1.0
CC(C)CNC(=O)C(=O)N/N=C/c1cccs1	-3	-1	-5%	-38	1.4
O=C(Cn1c(S(=O)(=O)Cc2ccccc2)nc2ccccc21)N1CCCCC1	-4	13	0%	-46	1.1	Arbovirus anti repeat=13
CCCSc1nnc2n(-c3ccccc3OC)c(=O)c3c4c(sc3n12)CCC4	-26	-13	13%	-4	0.8
CO/N=C/C(C#N)=C/c1ccc(OC)cc1	-3	-12	1%	.	1.7
COc1ccc(NS(=O)(=O)c2cc(C(=O)N3CCN(C/C=C/c4ccccc4)CC3)ccc2C)cc1	-2	.	.	.	2.4
CC(C)C(NCc1c(Cl)cccc1Cl)C(=O)O (stereo unspecified)	-10	-2	-5%	-46	1.9
CCN(CC)S(=O)(=O)c1ccc2c(c1)c(=O)c(C(=O)NCCN(C)CCc1ccccc1)cn2C	3	-7	1%	-8	-2.5
COc1ccc(C(=O)N2CCOCC2)cc1Br	3	1	-12%	-17	-1.6
CCCc1nnc(NC(=O)c2nc(S(=O)(=O)Cc3cccc(C)c3)ncc2Cl)s1	3	.	.	.	85*
CC(C)Oc1ccc(C(=O)OCC(=O)NCCNC(=O)COC(=O)c2ccc(OC(C)C)cc2)cc1	3	.	.	.	-1.0
COc1ccc(C(=O)NCCn2cc(SCC(=O)NCC3CCCO3)c3ccccc32)cc1 (stereo unspecified)	5	.	.	.	-3.1
O=C(c1ccccc1)C1CCN(C(=O)c2ccco2)CC1	-15	.	.	.	-2.1
O=C(NCC1COc2ccccc2O1)C1CCN(S(=O)(=O)c2cccc3nsnc23)CC1 (stereo unspecified)	-4	6	-3%	-34	1.6
Cc1ccccc1C(=O)c1c[nH]c(C(=O)N=CN(C)C)c1	2	0	9%	.	-1.4
O=S(=O)(NCc1ccccn1)C(F)(F)F	95	.	.	.	0.9
CCCCOc1ccc(C(=O)N/C(=C/c2cccc([N+](=O)[O-])c2)C(=O)O)cc1	-2	-2	-2%	.	0.3
COc1ccc(S(=O)(=O)n2nc(OC(=O)C3CCCCC3)cc2N)cc1	-3	3	-12%	-29	1.3
CC1CN(CC(=O)NN=C(c2ccccc2)c2ccccc2)CC(C)O1 (stereo unspecified)	-4	0	4%	.	-0.3
CCCCn1c(Oc2ccc(C(=O)OC)cc2)nc2c1c(=O)n(C)c(=O)n2C	-4	23	5%	-13	0.9	Arbovirus anti repeat=9

Reprinted from the part before: 2 entries, then new ones.
SMILES	Mtb betalactam	Arbovirus anti	Mtb growth	YopH inh	RecA splice inh	others
CC1CN(CC(=O)NN=C(c2ccccc2)c2ccccc2)CC(C)O1 (stereo unspecified)	-4	0	4%	.	-0.3
CCCCn1c(Oc2ccc(C(=O)OC)cc2)nc2c1c(=O)n(C)c(=O)n2C	-4	23	5%	-13	0.9	Arbovirus anti repeat=9
Cc1cc(C)n2nc(CNS(=O)(=O)c3ccc(CC(C)C)cc3)nc2n1	-2	.	.	.	0.4
Cn1c(N)c(Sc2ccc(F)cc2)c(=O)n(C)c1=O	-7	9	-7%	.	-1.5
Cc1sc(=NC(=O)c2ccco2)n(C)c1-c1ccc(Cl)cc1	2	1	11%	-38	3.9
COc1ccc(S(=O)(=O)/N=C2\C=C(NS(=O)(=O)c3ccccc3)C(=O)c3ccccc32)cc1	6	.	.	.	36*
Cc1nn(-c2ccccc2)c(Cl)c1C(=O)NC1CCCCC1	0	1	14%	.	0.9
CC(C)CC(c1nnnn1CC1CCCO1)N1CCN(C2CCCC2)CC1 (stereo unspecified)	.	3	-1%	-20	3.7
CC(C)NS(=O)(=O)c1ccc(OCC(=O)N2CCN(C)CC2)cc1	-3	2	-5%	-1	-1.3	Arbovirus anti repeat=5
Cc1ccc(C)c(OCCOCCN2CC(C)OC(C)C2)c1C (stereo unspecified)	-2	1	-5%	-15	-1.3
O=C(NCCCO)c1ccc2nc(-c3ccco3)c(-c3ccco3)nc2c1	.	2	2%	.	.
C/C(CCC(C)C)=N\NC(=S)Nc1cc(S(=O)(=O)N2CCOCC2)ccc1N1CCOCC1	-4	1	1%	.	6.3
S=c1[nH]nc(-c2ccccn2)n1/N=C/c1ccc(Cl)cc1	-5	.	-9%	.	-13
COc1ccccc1CCNC(=O)C(=O)NCC1OCCCN1S(=O)(=O)c1ccc(F)cc1C (stereo unspecified)	-2	.	.	.	4.5
Cc1ccc(OCC(=O)N2CCCc3ccccc32)cc1	4	-9	3%	2	1.9
Cc1ccc2cc(CCNC(=O)C(=O)c3c[nH]c4ccccc34)c(=O)[nH]c2c1	-4	-6	4%	.	-1.5

Screening results deposited in PubChem by several laboratories.
